# High-throughput results: PubChem, National Center for Advancing Translational Sciences (NCATS)
# Menin MLL FP FL – qHTS Assay for Inhibitors Targeting the Menin-MLL Interaction in MLL Related Leukemias: Competition With Fluorescein Labeled MLL-derived Peptide | Fluorescence polarization, fluorescein-MLL peptide displacement from menin | FP activity change, % at 61.4 µM | 290,000 tested, under 10 active; inconclusive = falling polarisation curve, or a change in total fluorescence; inactive = total fluorescence flat and polarisation flat or rising; no compound was filed as active; the % refers to the polarisation; negative = inhibition;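 also: % of control where 0% means no effect; inhibitors lower the polarisation; unlabelled MLL peptide was the positive control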
# PINK1 modulator – A Quantitative High throughput Screen to Identify Chemical Modulators of PINK1 Expression. PINK1 immunofluorescence, high-content cytometry, 24 h. Potency, µM (doses to about 76.6 µM), inactives show at the highest dose activation (PINK1 increase), most hits filed as activators. 410,000 tested, 0.2% active. AID 624263, 2012; active = well fitted activation curve with a large enough effect; inconclusive = small, poorly fitted or top-dose-only effect; inactive = flat fitted curve, though single readings scatter; cell line not stated here;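 also: potency is read from the fitted curve at half-maximal effect; % of control where 0% means no effect; nearly all actives have a fitted effect of over 65% in size; a mitochondrial uncoupler was the plate control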
#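 A stable cell line was treated with compounds at 5 concentrations for 24 hours, with CCCP as control. PINK1 levels and mitochondrial localization were measured by immunofluorescence with mitochondrial, cell and nuclear markers after fixation, read by laser-scanning cytometry.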
# TRPML1 agonist – qHTS for Agonists of the Human Mucolipin Transient Receptor Potential 1 (TRPML1) | TRPML1-expressing cells, Ca2+ dye fluorescence, FDSS; host cell line not named in the record; reference of the full effect not given here | activation, % (concentration not given with the values) | 410,000 tested, 0.12% active; in the data active = activation above about 50%; inconclusive = about 30% to 50%; inactive = below about 30%; also: 0% is about no effect; the text of the record puts the active cut at 80%
# Target sequence (Q9GZU1 whole entry, looked up): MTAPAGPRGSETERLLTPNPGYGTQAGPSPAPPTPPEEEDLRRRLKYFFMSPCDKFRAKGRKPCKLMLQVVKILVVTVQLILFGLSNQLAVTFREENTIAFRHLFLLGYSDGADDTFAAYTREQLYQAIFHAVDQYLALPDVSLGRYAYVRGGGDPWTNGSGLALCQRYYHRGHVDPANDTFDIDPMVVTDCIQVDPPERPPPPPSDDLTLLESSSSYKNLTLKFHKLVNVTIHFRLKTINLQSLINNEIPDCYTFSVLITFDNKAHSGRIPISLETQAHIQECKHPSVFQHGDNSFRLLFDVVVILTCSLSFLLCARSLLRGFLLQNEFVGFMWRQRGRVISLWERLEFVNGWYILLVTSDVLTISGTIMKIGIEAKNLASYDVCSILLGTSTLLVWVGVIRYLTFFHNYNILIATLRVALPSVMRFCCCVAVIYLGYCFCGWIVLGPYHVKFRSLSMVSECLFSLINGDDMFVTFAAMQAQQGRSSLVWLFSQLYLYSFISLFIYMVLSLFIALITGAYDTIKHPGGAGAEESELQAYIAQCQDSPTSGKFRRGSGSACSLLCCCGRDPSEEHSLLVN
#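 TRPML1-DL cells, Tet-induced overnight (~16 h, 37 degrees C), loaded 45-90 min at room temperature with Ca8 no-wash calcium dye plus quencher. FDSS fluorescence: 10 s baseline, compound pin-transfer, 110 s agonist read, then EC80 54-4 (4uM final) and 110 s antagonist read.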
# Sfp PPTase inh – qHTS Assay for Inhibitors of Bacillus subtilis Sfp phosphopantetheinyl transferase (PPTase); 4'-phosphopantetheinyl transferase ffp (Bacillus subtilis), Q9F4F7; AID 1490, 2009; Potency, µM, inactives show max response, negative = inhibition, actives largely listed as inhibitors; 310,000 tested, 3.5% active; Biochemical Sfp PPTase activity, qHTS; active = well fitted inhibition curve with a large enough effect; inconclusive = small, poorly fitted or top-dose-only effect, or another doubt; inactive = no such curve, though single readings can be large or run the other way;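 also: the enzyme is Sfp with the accession as filed and its product quenches rhodamine fluorescence; potency is read from the fitted curve at half-maximal effect; 0% = enzyme reaction without inhibitor and -100% = no enzyme wells; top concentration of the series not given in the record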
#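 Fluorescence-quenching assay with 15 nM Sfp, 5 uM rhodamine-CoA and 12.5 uM BHQ-2-labelled ybbR peptide in pH 7.6 Hepes/MgCl2 buffer. Enzyme was pre-incubated with compound for 15 min at room temperature. Rate was taken from the 30-min fluorescence change (525/598 nm).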
# ClpP mod – qHTS Assay for Activators of ClpP; ATP-dependent Clp protease proteolytic subunit (Bacillus subtilis (strain 168)), P80244; purified B. subtilis ClpP, FRET peptide cleavage, 20 min; Potency, µM (highest dose often 57.5 µM), for the others: at the top dose activity change, negative = active; 340,000 tested, 1.9% active; active = well fitted falling curve with a large enough effect; inconclusive = small, poorly fitted or top-dose-only effect; inactive = no such curve, though single readings can be large or run the other way; also: potency is read from the fitted curve at half-maximal effect; the source files actives as falling curves though it sought activators and does not explain the sign; nearly all actives have a fitted effect of over 65% in size; many hits overshoot -100%
# Target sequence (P80244 whole entry, looked up): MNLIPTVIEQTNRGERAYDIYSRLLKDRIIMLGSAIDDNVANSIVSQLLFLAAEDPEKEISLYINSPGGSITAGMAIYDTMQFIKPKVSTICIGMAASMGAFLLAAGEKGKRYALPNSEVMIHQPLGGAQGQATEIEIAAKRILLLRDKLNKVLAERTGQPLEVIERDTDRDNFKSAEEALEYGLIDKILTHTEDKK
#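 ClpP 10 microg/mL final, pH 8 Tris/KCl buffer with BSA, glycerol, Tween-20; compound pinned in; FRET-FV substrate; RT 20 min; Ex320/Em430; ΔFRET vs ADEP 5.8 microM, DMSO, no enzyme.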
# TRPML1 inh – qHTS for Inhibitors of the Human Mucolipin Transient Receptor Potential 1 (TRPML1) | Mucolipin-1 (Homo sapiens), Q9GZU1 | TRPML1-inducible cells, Ca2+ dye fluorescence, FDSS; hits give low values; inhibition of EC80 agonist-evoked calcium signal | activity change, negative = inhibition, % (concentration not given with the values) | 390,000 tested, 0.02% active | AID 624415, 2012; in the data active means activity change below about -50%; inconclusive means about -30% to -50%; inactive means above about -30%;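 also: stimulus is agonist 54-4 at its EC80 concentration; % is scaled to controls: 0 for no effect and ±100 for the full control effect; compound concentration not given in the record; the text of the record puts the active cut at -80%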
#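 TRPML1-DL cells, Tet-induced overnight (~16 h, 37 °C) at 1,500 cells/well, were loaded with Ca8 no-wash dye plus quencher for 45-90 min at room temperature. Compounds were pinned during FDSS kinetic reading; agonist 54-4 at EC80 (4 uM final) then added.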
# TRPV1 PAM – HTS Assay for Compounds that Act as Potentiators of the Vanilloid Receptor 1; TRPV1-expressing cells, Fluo-8 calcium influx, capsaicin EC20 potentiation; host cell line not named in the record; control for the full effect not named in the record; potentiation, % at 8.33 µM; Transient receptor potential cation channel subfamily V member 1 (Homo sapiens), Q8NER1; 320,000 tested, 0.02% active; AID 540277, 2011; active means potentiation above 80%; inconclusive means 30% to 80%; inactive means below 30%; also: 0% is about no effect
#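 TRPV1-expressing cells were cultured overnight at 35.5C and loaded with Fluo-8 calcium dye for 40 to 90 min at room temperature. After a 10 s baseline, compound was added and calcium influx was read kinetically for 3 min (ex 480/em 520 nm).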
# An asterisk follows results filed as active; ? = inconclusive; · = not tested or not shown; [ ] = remark or other dose. Compounds were not picked by outcome; overall some 4.4% were active at least once.
# Every second line gives: Menin MLL FP FL, PINK1 modulator, TRPML1 agonist, Sfp PPTase inh, ClpP mod, TRPML1 inh, TRPV1 PAM
- Cc1cccn2c(Nc3ccc4c(c3)OCCO4)c(-c3ccc(Br)o3)nc12
  ·, -0.7%, 5.1, ·, ?, 23.4, ·
- COC(=O)c1ccc(-n2nnnc2SCC(=O)Nc2ccccc2OC)cc1
  1.0, 0.5%[38.3 µM], -0.2, 18.0%, -0.9%, -2.0, -1.5
- CCc1ccccc1NC(=O)N1CCc2ccccc21
  -1.3, 0.9%, 0.0, 13.1%, -0.1%, 35.0, 2.2
- O=C(NCc1ccccn1)C(=O)NCc1ccccn1
  -0.1, 2.2%, -0.7, 56.2µM*, ·, 2.1, 96.7*
- O=C(CSC1CN(C(c2ccccc2)c2ccccc2)C1)N/N=C/c1ccc(Cl)cc1Cl
  1.5, 3.6%, 2.7, 10.0%, -1.5%, 9.1, -1.0
- O=C(O)CCc1ccc(S(=O)(=O)Nc2ccc(OCc3ccccc3)cc2)cc1
  5.4, 4.0%, -0.1, 27.8%, ·, 4.3, -0.1
- CN(CC1CCCN(CCc2ccc(Cl)cc2)C1)C(=O)c1ccoc1 (configuration not stated)
  ·, -0.7%, -0.2, 18.6%, 0.7%, 17.3, -1.7
- CCN1CCN(C(=O)CNC(=O)c2nn(-c3ccc(OC)cc3)c(=O)c3ccccc23)CC1
  -1.6, -0.7%, 0.6, 3.0%, ·, -19.1, -2.1
- Cc1c(/C=N/NC(=O)CNc2ccccc2)c2ccccn2c1C(=O)c1ccccc1
  4.8, 1.1%, -0.3, 0.9%, -1.7%, -22.8, 5.3
- COc1ccc(-c2noc(CSc3ccccc3)n2)cc1OC
  -1.6, -2.0%, 2.3, ?, -2.0%, -7.5, -1.2
- COc1cc(C=CC(=O)OCC=Cc2ccc3c(c2)OCO3)cc(OC)c1OC
  ·, 5.5%, 3.6, ·, 28.2µM*, 10.6, ·
- CN(C)CCCNC(=O)C[C@H]1C[C@H](C(=O)N2CCCCC2)[C@@]2(CCc3ccccc3)c3[nH]c4cc(CCC(=O)N(C)C)ccc4c3CCN2C1=O
  ·, -0.5%, 3.9, ·, 0.3%, -2.0, ·
- COc1ccccc1NC(=O)c1sc2nc(-c3cc4cc(Cl)ccc4oc3=O)[nH]c(=O)c2c1C
  ·, 14.9%, 0.4, ·, 2.1%, 38.6, ·
- COc1cc(Cl)c(C)cc1NC(=O)c1sc2nc(C)cc(C)c2c1N
  ·, 0.9%, -0.4, ·, -16.2%, -2.9, ·
- CCC(C)NCC(=O)Nc1ccc(-c2nc3cc(NC(=O)CNC(C)CC)ccc3o2)cc1 (configuration not stated)
  4.2, 0.3%, 0.2, 10.5%, 12.6µM*, -17.7, 14.3
- COc1ccc(NC(=O)C[C@H]2C(=O)N(Cc3ccccc3)C[C@@H]2c2ccc(OC)cc2)cc1
  ·, -0.6%, -0.3, ·, 1.5%, -0.4, ·
- O=C1CC(SC(=Nc2ccccc2)Nc2ccccc2)C(=O)N1c1cccc2ccccc12 (configuration not stated)
  1.5, 1.5%, 0.5, 1.9%, -4.4%, 42.1, -15.3
- CCn1c(/C=C/c2c[nH]c3ccccc23)nc2ccccc2c1=O
  -3.5, ?, 0.9, 12.0%, ·, 12.2, 24.2
- N#CCCN(NC1=NS(=O)(=O)c2ccccc21)C(=O)c1ccccc1Br
  -8.7, 0.6%, -0.6, 6.6%, ·, 31.9, -51.2
- CCC(C)NC(=O)Cn1c(=O)n(CC2CCC(C(=O)NC)CC2)c(=O)c2sccc21 (configuration not stated)
  ·, 1.1%, 0.7, ·, -0.5%, 6.5, ·
- COc1ccc(C(=O)C2CCCN(Cc3ccc4nonc4c3)C2)c(C)c1 (configuration not stated)
  -1.2, 3.4%, 2.3, 13.4%, 0.4%, 77.8, -8.9
- CCc1ccc(NC(=O)CC(c2ccc(C)cc2)N2Cc3ccccc3C2=O)cc1 (configuration not stated)
  ·, 0.5%, 3.1, ·, 2.0%, 30.9, ·
- Cc1cccn2c(=O)nc(SCC(=O)NC3CCCC3)nc12
  ·, -0.5%, -0.5, ·, ·, 3.6, -2.2
- Cc1cc(C)c2c(c1)c(C)cc1nnc(SCC(=O)NCc3ccco3)n12
  -4.2, 0.5%[38.3 µM], 1.1, 9.1%, -28.3%, -0.7, -8.4
- CCCCSC1=C(C#N)C(c2ccccc2C)C(C(=O)OCC)C(=O)N1 (configuration not stated)
  0.3, -2.4%[38.3 µM], 0.7, -8.7%, 0.4%, 11.6, 14.8
- Cc1ccc(S(=O)(=O)NCC2(c3ccccc3)CCOCC2)cc1
  -2.1, -1.2%, 4.2, 13.0%, 0.5%, 0.9, 26.8
- CCOC(=O)CNC(=O)CSc1nnc(-c2ccco2)n1Cc1ccco1
  5.7, -3.0%[38.3 µM], -0.3, -8.0%, -7.8%, -0.4, 19.2
- CCc1ccccc1NC(=O)CSc1nc2c(oc3ccccc32)c(=O)n1-c1ccccc1F
  ·, 0.8%, -0.2, ·, -8.7%, 17.1, ·
- CC(NC(=O)CN1c2cccc3cccc(c23)S1(=O)=O)c1ccccc1 (configuration not stated)
  ·, -0.2%, -0.3, ·, ?, -2.8, ·
- CCOC(=O)c1c(NC(=O)CN2C(=O)N(C)C3(CCCCC3)C2=O)sc(C(=O)N(C)C)c1C
  ·, 2.9%, 0.3, ·, -0.4%, -8.9, ·
- CC1CC(C)CN(Cc2nc3c(c(=O)n(C)c(=O)n3C)n2CCN2CCOCC2)C1 (configuration not stated)
  -2.2, -0.6%, -0.5, 12.4%, -3.3%, -0.4, -12.1
- O=C(NN1C(=O)c2ccccc2NC1c1ccc([N+](=O)[O-])o1)c1ccccc1 (configuration not stated)
  -1.3, 2.7%, 1.4, -19.0%, ·, -1.3, 1.4
- Cc1ccc(S(=O)(=O)NC(CCc2ccccc2)CC(=O)C(C)(C)C)cc1 (configuration not stated)
  -0.8, 17.9%, -0.1, 9.8%, 1.3%, 4.6, -9.7
- CCOc1ccccc1NC(=O)Cn1c(=O)n(CCC(=O)NC2CCCC2)c(=O)c2ccccc21
  2.0, ·, ·, 7.0%, ·, ·, -2.3
- COc1ccc(NC2CCCN(C(=O)CCN3Cc4ccccc4C3=O)C2)cc1 (configuration not stated)
  0.5, -1.3%, -0.4, 14.1%, 1.0%, 12.7, -15.1
- C[C@H](CO)N1C[C@H](C)[C@@H](CN(C)S(=O)(=O)c2ccccc2)Oc2ccc(NC(=O)CCN3CCOCC3)cc2C1=O
  ·, 0.2%, 0.4, ·, -7.7%, -17.5, ·
- O=C(c1ccco1)N(CCCN1CCOCC1)c1nc(-c2ccc(Cl)cc2)cs1
  1.6, 3.7%[38.3 µM], 1.1, 5.6%, 40.4%, 77.1, 8.9
- COC(=O)c1ccnc(SCC(=O)c2ccccc2)c1
  ·, -0.3%, -0.6, 7.5%, ·, 7.6, -7.7
- Cc1cc(C)n2nc(SCC(=O)NC(=O)c3ccccc3)nc2n1
  ·, 0.3%, -0.4, ·, ·, -6.0, ·
- Cc1ccccc1C(=O)OC1OC(=O)C(Cl)=C1Nc1ccc(C(=O)O)cc1 (configuration not stated)
  -5.4, 1.0%, 1.3, -10.6%, ·, 3.5, 1.0
- C=CCSc1nc(N)c(C#N)c(-c2ccccc2)c1C#N
  4.7, 5.7%, 0.7, 3.5%, -14.9%, 4.3, -10.1
- Cc1ccc(NC(=O)CN(c2ccc3c(c2)OCO3)S(=O)(=O)c2c(C)n[nH]c2C)cc1
  2.0, 3.0%, 0.7, 1.2%, 0.2%, 14.6, 21.0
- COc1ccc(-c2nnn(Cc3nc(N)nc(N4CCCCC4)n3)n2)cc1
  7.5, 0.4%, -0.8, 10.3%, -1.8%, -2.2, 7.7
- O=C(CN1CCOCC1)Nc1cccc(S(=O)(=O)N2CCCCCC2)c1
  0.0, 4.0%, 1.0, 0.1%, ·, -3.7, -2.7
- O=C(C1=C[C@H](c2ccc(Br)cc2)C[C@H](OCc2ccc(CO)cc2)O1)N1CCN(Cc2ccc3c(c2)OCO3)CC1
  6.8, 0.2%, 0.0, 6.8%, -0.2%, -10.5, 22.7
- C#CCN(C(=O)c1cc(COc2ccc(C)c(C)c2)on1)C1CCCCC1
  2.3, 0.0%, 3.9, 1.3%, 1.9%, 13.3, -1.2
- COc1ccc(-c2ccc([C@H]3[C@H]4C=CC[C@@H](C)[C@@H]4C(=O)N3Cc3ccccc3)c(F)c2)cc1OC
  6.7, 5.9%, 2.0, 22.4µM*, 3.4%, 80.8, 4.5
- Cn1c(=O)c2[nH]c(Nc3ccccc3)nc2n(C)c1=O
  1.4, 0.0%, -1.2, ?, -0.4%, -5.5, 2.3
- CCc1nc(SCC(=O)N2c3ccccc3Sc3ccccc32)c2ccccc2n1
  3.2, 9.4%, -1.4, 3.4%, -2.7%, 14.2, 3.8
- COc1ccccc1N1CCN(C(=O)C(=O)c2c(C)n(C)c3ccccc23)CC1
  -0.3, 5.2%, -0.3, 1.4%, -0.6%, -20.6, 9.4
- FC(F)Oc1ccc(NC(=S)NC2CCSc3ccccc32)cc1 (configuration not stated)
  ·, ?, 0.2, ?, -0.8%, 7.7, 6.4
- O=C(O)Cc1ccc2c(c1)N(S(=O)(=O)c1cccs1)CC(C(=O)O)O2 (configuration not stated)
  -2.1, -0.3%, 0.2, 15.4%, -0.4%, -5.4, 2.5
- CCN1CCc2nc3sc(C(=O)c4ccc(F)cc4)c(N)c3cc2C1
  ·, ?, 2.5, ·, -7.2%, -19.1, ·
- O=C(N=C1SC2CS(=O)(=O)CC2N1c1cc(Cl)ccc1Cl)C1CCCO1 (configuration not stated)
  -1.6, 0.6%, 0.1, -0.1%, -0.2%, 13.7, ?
